Screens: PubChem BioAssay, Broad Institute
UUG fidelity = alters start codon recognition fidelity in yeast; S. cerevisiae UUG-firefly luciferase reporter, luminescence/redox ratio; hit rate 0.13% among 350,000; activity score, % at 18.7 µM;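 active means replicate mean at a twofold rise or more, about +100% in these data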;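 further: firefly luciferase made from a UUG start codon reports start codon fidelity; reporter light over untreated wells divided by growth signal over untreated wells; some hits fall short of that in this replicate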
Env fusion inh = blocks HIV Env-driven cell-cell fusion | HeLa-JRFL Env/CEM21 cell fusion, luciferase | inhibition, % at 12.3 µM | hit rate 1.1% among 360,000;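 active means mean replicate inhibition score of at least 50 and every replicate individually at or above 50; inconclusive means only one of the two criteria met; inactive means mean below 50 and not all replicates reaching 50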;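 further: 0% = plate neutral controls and 100% = maraviroc near 300 nM; one replicate is shown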
* marks the source's active call; other numbers are inactive results; u = inconclusive; [ ] = another dose, or the depositor's remark. These rows are one share of the data. The share of hits here may be higher or lower than overall.

Second line of a record – UUG fidelity, Env fusion inh
1. C[C@H](CO)N1C[C@H](C)[C@H](CN(C)Cc2cccc(F)c2)Oc2ncc(-c3ccccc3F)cc2C1=O
    -5, 25[16.7 µM]
2. C[C@H](CO)N1C[C@H](C)[C@H](CN(C)CC2CC2)Oc2ncc(-c3ccc(C#N)cc3)cc2C1=O
    -10, 14[16.7 µM]
3. C[C@@H]1CN([C@H](C)CO)C(=O)Cc2cc(NC(=O)CCCCCC(=O)Nc3ccccc3N)ccc2O[C@H]1CN(C)Cc1ccncc1
    -7, -22[16.7 µM]
4. COc1ccc(CN(C)C[C@@H]2OCCCC[C@H](C)Oc3ccc(NS(=O)(=O)c4ccc(F)cc4)cc3C(=O)N([C@@H](C)CO)C[C@@H]2C)cc1
    7, -8[16.7 µM]
5. C[C@H]1CCCCO[C@@H](CN(C)S(=O)(=O)c2cccs2)[C@@H](C)CN([C@@H](C)CO)C(=O)c2cc(NC(=O)C3CCCCC3)ccc2O1
    -4, -70[16.7 µM]
6. CCC(=O)N(C)C[C@@H]1Oc2cc(C#Cc3cccnc3)ccc2S(=O)(=O)N([C@@H](C)CO)C[C@@H]1C
    -7, 13[16.7 µM]
7. O=C(N[C@H]1CC[C@@H](CCNS(=O)(=O)c2ccc(Cl)cc2)O[C@H]1CO)c1cnccn1
    -4, -1[16.7 µM]
8. O=C(NCC[C@@H]1CC[C@@H](NS(=O)(=O)c2cccc(F)c2)[C@@H](CO)O1)C1CCCCC1
    -11, -12[16.7 µM]
9. C[C@H]1CN([C@@H](C)CO)S(=O)(=O)c2ccc(C3=CCCCC3)cc2O[C@H]1CN(C)Cc1ccccc1F
    -2, 21[16.7 µM]
10. CC(C)C#Cc1ccc2c(c1)O[C@H](CN(C)C(=O)Cc1ccccn1)[C@@H](C)CN([C@H](C)CO)S2(=O)=O
    4, -19[16.7 µM]
11. O=C(C[C@H]1C[C@H]2c3cc(NS(=O)(=O)c4ccc(F)cc4)ccc3O[C@H]2[C@H](CO)O1)NCCc1ccccc1
    4, u
12. O=C(Nc1ccc2c(c1)[C@@H]1C[C@@H](CC(=O)N3CCOCC3)O[C@H](CO)[C@@H]1O2)c1ccc2c(c1)OCO2
    -3, -19[16.7 µM]
13. COc1ccc(NC(=O)Nc2ccc3c(c2)C(=O)N([C@@H](C)CO)C[C@@H](C)[C@@H](CN(C)S(=O)(=O)c2ccc(F)cc2)O3)cc1
    5, 30[16.7 µM]
14. C[C@H](O)C#Cc1ccc2c(c1)O[C@H](CN(C)C)[C@@H](C)CN([C@H](C)CO)S2(=O)=O
    -19, 4[16.7 µM]
15. O=C(Nc1ccc2c(c1)OCO2)N[C@H]1CC[C@H](CCNC(=O)C2CCC2)O[C@@H]1CO
    1, 0[16.7 µM]
16. C[C@H](NC(=O)C[C@@H]1C[C@H]2c3cc(NS(C)(=O)=O)ccc3O[C@H]2[C@H](CO)O1)c1ccccc1
    34, 0[16.7 µM]
17. C[C@@H]1CCCCO[C@@H](CN(C)C(=O)Nc2ccccc2)[C@@H](C)CN([C@H](C)CO)C(=O)c2cc(NC(=O)CCCCCC(=O)Nc3ccccc3N)ccc2O1
    0, -4[16.7 µM]
18. COc1cccc(C#Cc2ccc3c(c2)O[C@H](CN(C)C(=O)CN2CCOCC2)[C@@H](C)CN([C@@H](C)CO)S3(=O)=O)c1
    31, 8[16.7 µM]
19. C[C@H](CO)N1C[C@H](C)[C@@H](CN(C)S(=O)(=O)c2cn(C)cn2)Oc2ccc(NC(=O)Nc3cccc4ccccc34)cc2CC1=O
    21, 10[16.7 µM]
20. O=S(=O)(N[C@H]1CC[C@H](CCn2cc(-c3cccc(F)c3)nn2)O[C@@H]1CO)c1ccc(F)cc1
    -1, 22[16.7 µM]
21. C[C@H](CO)N1C[C@H](C)[C@@H](CN(C)C(=O)Nc2cccc3ccccc23)OCCCC[C@H](C)Oc2ccc(NC(=O)Nc3ccccc3)cc2C1=O
    -3, 15[16.7 µM]
22. CCCC#Cc1ccc([C@H]2[C@@H](C#N)N(C(=O)C3CCCC3)[C@@H]2CO)cc1
    19, -11[16.7 µM]
23. C[C@H](O)C#Cc1ccc2c(c1)O[C@H](CN(C)Cc1ccccn1)[C@H](C)CN([C@@H](C)CO)S2(=O)=O
    -9, 2[16.7 µM]
24. C[C@@H]1CN([C@H](C)CO)C(=O)Cc2cc(NS(C)(=O)=O)ccc2O[C@H]1CN(C)S(=O)(=O)c1cccs1
    -4, 3[16.7 µM]
25. COc1ccc(NC(=O)Nc2ccc3c(c2)C(=O)N([C@H](C)CO)C[C@H](C)[C@@H](CN(C)CC2CCCCC2)OCCCC[C@@H](C)O3)cc1
    -4, 1[16.7 µM]
26. C[C@@H]1CN([C@@H](C)CO)C(=O)c2cccc(NC(=O)C3CCCCC3)c2O[C@H]1CN(C)CC1CC1
    -11, 50[16.7 µM]
27. C[C@H]1CN([C@@H](C)CO)C(=O)c2cccc(NC(=O)NC3CCCCC3)c2O[C@@H]1CN(C)C(=O)NC1CCCCC1
    0, -10[16.7 µM]
28. Cc1noc(C)c1NC(=O)N(C)C[C@@H]1OCCCC[C@@H](C)Oc2ccc(NC(=O)c3ccncc3)cc2C(=O)N([C@@H](C)CO)C[C@H]1C
    1, 23[16.7 µM]
29. C[C@@H]1CN([C@@H](C)CO)C(=O)Cc2cc(NC(=O)NC3CCCCC3)ccc2O[C@H]1CN(C)CC1CC1
    -5, -8[16.7 µM]
30. COc1ccc(NC(=O)N[C@H]2CC[C@H](CCNC(=O)CCN3CCCCC3)O[C@H]2CO)cc1
    -5, -10[16.7 µM]
31. C[C@H]1CN([C@@H](C)CO)C(=O)c2cc(NS(=O)(=O)c3ccc(F)cc3)ccc2O[C@H]1CN(C)Cc1ccc(C(=O)Nc2ccccc2N)cc1
    12, 1[16.7 µM]
32. O=C(NCC[C@@H]1CC[C@@H](NS(=O)(=O)c2ccc(Cl)cc2)[C@H](CO)O1)c1ccccc1F
    3, 20[16.7 µM]
33. CC(C)NC(=O)N(C)C[C@H]1Oc2cc(-c3ccccc3)ccc2S(=O)(=O)N([C@@H](C)CO)C[C@H]1C
    3, 29[16.7 µM]
34. C[C@@H]1CN([C@@H](C)CO)C(=O)Cc2cc(NC(=O)C3CC3)ccc2O[C@@H]1CN(C)S(C)(=O)=O
    -5, 8[16.7 µM]
35. C[C@@H]1CCCCO[C@@H](CN(C)C(=O)Cc2ccccc2)[C@@H](C)CN([C@@H](C)CO)C(=O)c2cc(NC(=O)NC3CCCCC3)ccc2O1
    -2, 2[16.7 µM]
36. Cc1ccc(S(=O)(=O)Nc2cccc3c2O[C@H](CN(C)C(=O)Nc2ccccc2)[C@@H](C)CN([C@H](C)CO)C3=O)cc1
    11, -23[16.7 µM]
37. O=C(Cc1ccccn1)N[C@@H]1CC[C@@H](CCNS(=O)(=O)c2cccc(F)c2)O[C@H]1CO
    19, -22[16.7 µM]
38. O=C(N[C@@H]1CC[C@@H](CCn2cc(C3(O)CCCC3)nn2)O[C@@H]1CO)c1ccccc1F
    -3, 6[16.7 µM]
39. C[C@@H]1CN([C@@H](C)CO)C(=O)c2cc(/C=C/c3ccccc3)cnc2O[C@H]1CN(C)C(=O)c1ccc(F)cc1
    11, -13[16.7 µM]
40. CC(C)NC(=O)Nc1ccc2c(c1)C(=O)N([C@@H](C)CO)C[C@@H](C)[C@H](CN(C)C(=O)Nc1ccc(F)cc1)OCCCC[C@H](C)O2
    -17, 5[16.7 µM]
41. C[C@H](CO)N1C[C@H](C)[C@@H](CN(C)S(=O)(=O)c2ccccc2)OCCCC[C@H](C)Oc2ccc(NS(C)(=O)=O)cc2C1=O
    -6, 14[16.7 µM]
42. C[C@H](CO)N1C[C@H](C)[C@H](CN(C)CC2CC2)Oc2c(NC(=O)c3ccncc3)cccc2C1=O
    -8, 3[16.7 µM]
43. C[C@H](CO)N1C[C@H](C)[C@@H](CN(C)C(=O)Cc2ccccc2)OCCCC[C@H](C)Oc2ccc(NS(=O)(=O)c3ccc(Cl)cc3)cc2C1=O
    -3, -7[16.7 µM]
44. C[C@@H](O)C#Cc1ccc2c(c1)O[C@H](CN(C)Cc1ccncc1)[C@@H](C)CN([C@@H](C)CO)S2(=O)=O
    5, -7[16.7 µM]
45. COc1ccc(-c2ccc3c(c2)O[C@H](CN(C)CC2CCOCC2)[C@@H](C)CN([C@H](C)CO)S3(=O)=O)cc1
    24, -2[16.7 µM]
46. Cc1ccc(S(=O)(=O)N[C@H]2CC[C@@H](CC(=O)NCCc3ccncc3)O[C@H]2CO)cc1
    -9, -1[16.7 µM]
47. Cc1noc(C)c1S(=O)(=O)Nc1ccc2c(c1)CC(=O)N([C@H](C)CO)C[C@@H](C)[C@H](CN(C)Cc1ccc(Cl)c(Cl)c1)O2
    16, -24[16.7 µM]
48. O=C(Nc1ccccc1F)N[C@H]1CC[C@@H](CCNC(=O)C2CCCC2)O[C@@H]1CO
    0, 10[16.7 µM]
49. O=S(=O)(N[C@@H]1CC[C@@H](CCn2cc(-c3ccccn3)nn2)O[C@@H]1CO)c1cccc(F)c1
    -8, -17[16.7 µM]
50. N#C[C@@H]1[C@H](c2ccc(-c3cccnc3)cc2)[C@H](CO)N1C(=O)C1CCC1
    0, 17[16.7 µM]
51. O=C(C[C@H]1C[C@@H]2c3cc(NS(=O)(=O)c4ccc(F)cc4)ccc3O[C@@H]2[C@@H](CO)O1)NCC1CC1
    -7, 22[16.7 µM]
52. CCC(=O)Nc1ccc2c(c1)C(=O)N(C)[C@H]1CC[C@H](CC(=O)Nc3cccc(F)c3)O[C@@H]1CO2
    0, 8[16.7 µM]
53. CN(C)CC(=O)N1[C@H](CO)[C@H](c2ccc(C#CC3CCCC3)cc2)[C@@H]1C#N
    9, 7[16.7 µM]
54. C[C@@H]1CCCCO[C@H](CN(C)C(=O)Nc2cccc3ccccc23)[C@@H](C)CN([C@H](C)CO)C(=O)c2cc(NC(=O)Cc3ccccc3)ccc2O1
    -2, -31[16.7 µM]
55. COC(=O)C[C@@H]1CC[C@H]2[C@@H](COc3ccc(NS(=O)(=O)c4ccccc4F)cc3C(=O)N2C)O1
    3, 0[16.7 µM]
56. CCNC(=O)C[C@H]1CC[C@@H]2[C@H](COc3ccc(NC(=O)c4ccccc4)cc3C(=O)N2C)O1
    0, 7[16.7 µM]
57. C[C@H](CO)N1C[C@H](C)[C@H](CN(C)C(=O)Nc2cccc3ccccc23)OCCCC[C@H](C)Oc2ccc(NC(=O)CCCN(C)C)cc2C1=O
    -5, -13[16.7 µM]
58. C[C@@H]1CN([C@H](C)CO)C(=O)Cc2cc(NS(=O)(=O)c3ccc(F)cc3)ccc2O[C@H]1CN(C)Cc1ccccc1
    -6, -7[16.7 µM]
59. COc1ccc(S(=O)(=O)N(C)C[C@H]2Oc3ccc(NS(C)(=O)=O)cc3C(=O)N([C@@H](C)CO)C[C@H]2C)cc1
    -8, -1[16.7 µM]
60. C[C@H](CO)N1C[C@H](C)[C@@H](CN(C)C(=O)CC2CC2)Oc2cc(-c3ccccc3)ccc2S1(=O)=O
    -1, -8[16.7 µM]

Other records follow.
Second line of a record – UUG fidelity, Env fusion inh
61. C[C@H](CO)N1C[C@H](C)[C@H](CN(C)C(=O)Nc2ccccc2)Oc2c(NS(=O)(=O)c3ccc(F)cc3)cccc2C1=O
    3, 88*[16.7 µM]
62. O=C(CCN1CCCCC1)N[C@@H]1CC[C@@H](CCNS(=O)(=O)c2ccc(Cl)cc2)O[C@@H]1CO
    7, -51[16.7 µM]
63. COc1ccc(-c2cnc3c(c2)C(=O)N([C@@H](C)CO)C[C@H](C)[C@H](CN(C)C(=O)Cc2ccncc2)O3)cc1
    -3, 11[16.7 µM]
64. C[C@@H]1CCCCO[C@@H](CN(C)C(=O)Cc2ccccc2)[C@H](C)CN([C@@H](C)CO)C(=O)c2cc(NS(=O)(=O)c3ccc(F)cc3)ccc2O1
    7, -26[16.7 µM]
65. CCC(=O)N(C)C[C@@H]1Oc2ncc(-c3ccc(C#N)cc3)cc2C(=O)N([C@@H](C)CO)C[C@@H]1C
    -3, -4[16.7 µM]
66. CN(C)CC(=O)N1[C@@H](C#N)[C@H](c2ccc(C#CC3CCCC3)cc2)[C@@H]1CO
    16, 4[16.7 µM]
67. C[C@@H]1CN([C@H](C)CO)C(=O)c2cccc(NC(=O)Nc3ccc(C(F)(F)F)cc3)c2O[C@H]1CN(C)CC1CC1
    13, -2[16.7 µM]
68. CCCN(C)C[C@H]1Oc2cc(C#CC3CCCC3)ccc2S(=O)(=O)N([C@H](C)CO)C[C@@H]1C
    -4, 15[16.7 µM]
69. C[C@@H]1CN([C@H](C)CO)C(=O)c2cccc(NC(=O)C3CCCCC3)c2O[C@H]1CN(C)Cc1ccc(-c2ccccc2)cc1
    -5, -20[16.7 µM]
70. C[C@H]1CN([C@@H](C)CO)C(=O)c2cc(NC(=O)CCC(F)(F)F)ccc2O[C@@H]1CN(C)S(=O)(=O)c1ccc(F)cc1
    -7, 4[16.7 µM]

An excerpt from above in order of the UUG fidelity value, low to high:
Second line of a record – UUG fidelity, Env fusion inh
70. C[C@H]1CN([C@@H](C)CO)C(=O)c2cc(NC(=O)CCC(F)(F)F)ccc2O[C@@H]1CN(C)S(=O)(=O)c1ccc(F)cc1
    -7, 4[16.7 µM]
69. C[C@@H]1CN([C@H](C)CO)C(=O)c2cccc(NC(=O)C3CCCCC3)c2O[C@H]1CN(C)Cc1ccc(-c2ccccc2)cc1
    -5, -20[16.7 µM]
68. CCCN(C)C[C@H]1Oc2cc(C#CC3CCCC3)ccc2S(=O)(=O)N([C@H](C)CO)C[C@@H]1C
    -4, 15[16.7 µM]
65. CCC(=O)N(C)C[C@@H]1Oc2ncc(-c3ccc(C#N)cc3)cc2C(=O)N([C@@H](C)CO)C[C@@H]1C
    -3, -4[16.7 µM]
67. C[C@@H]1CN([C@H](C)CO)C(=O)c2cccc(NC(=O)Nc3ccc(C(F)(F)F)cc3)c2O[C@H]1CN(C)CC1CC1
    13, -2[16.7 µM]
66. CN(C)CC(=O)N1[C@@H](C#N)[C@H](c2ccc(C#CC3CCCC3)cc2)[C@@H]1CO
    16, 4[16.7 µM]
